PrP UTR inh: inhibition of PrP 5' UTR reporter expression; cell-based PrP 5' UTR mRNA reporter, plate reader; inhibition, % (test concentration not listed); hit rate 0.35% among 340,000; AID 488862, 2010;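 active = every replicate at 50% or more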;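 note: 0 = median of the neutral control wells; tested in H4 reporter cells; numbers are from one replicate; inactives centre near -14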
ugtP null kill: growth inhibition of ugtP-null S. aureus, primary screen, RN4220 ugtP deletion, OD600; 16 h; some inactives read as strong as hits; growth inhibition, % (concentration not given with the values); hit rate 0.54% among 330,000;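 active = z-score under -3 and OD600 up to 0.15 on both plates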;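 note: plate controls were untreated wells for no effect and antibiotic for full effect; wells of about 80 µL received 100 nL stock; the first replicate is given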
Mtb hypoxia rep: PubChem AID 1159583; hit rate 0.1% among 300,000; fluorescence inhibition, % (no concentration beside the values); M. tuberculosis hypoxia-regulated fluorescent reporter, fluorescence;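 active = 35 to 45% if threefold the growth effect, above 45% if 1.5-fold the growth effect; inactive = the rest, general growth blockers included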;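 note: wells of about 50 µL received 100 nL stock; 0% = vehicle wells and 100% = reference inhibitor wells; whole bacteria with a GFP reporter of the hypoxia response; strong numbers were not always called active; many hits fall short of the cut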
Sa RN4220 lethal: growth inhibition of S. aureus RN4220, primary screen, OD600; hit rate 0.33% among 330,000; 16 h; inhibition, % (test concentration not listed);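 active = z-score of -3 or lower and OD600 up to 0.18 on both plates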;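 note: plate controls were untreated cells for no effect and reference antibiotic for full effect; stock transfer was 100 nL into about 80 µL; one replicate is shown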
BJeLR lethal: MLPCN primary cell-based screen for lethality selective to Ras in HRASV12 cells | BJeLR (HRASV12) viability, CellTiter-Glo ATP luminescence, 48 h; reference of the scale not given here | inhibition, % (concentration not given with the values) | hit rate 0.17% among 300,000 | AID 1554, 2009;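 active = replicate mean above 50%; inconclusive = above 50% but judged a plate artefact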;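 note: 50 nL library stock added to about 25 µL; numbers are from one replicate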
Bead autofluor: flagged as autofluorescent in microsphere protease counterscreen | compound autofluorescence counterscreen, microsphere flow cytometry; hits give high values | fluorescence intensity (concentration not given with the values) | hit rate 3.1% among 360,000 | AID 624483;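 active = at least 3 SD above the mean of all compounds, about 16000 in these data; inconclusive = too few beads counted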;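 note: 100 nL of 1 mM stock went into each well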
Mtb hypoxia rep growth: second read-out of Mtb hypoxia rep, no call of its own (marks repeat the call); growth inhibition, %; measured here: M. tuberculosis growth (absorbance);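 0% = vehicle and 100% = reference antibiotic; read after six days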
The depositor's hits bear a star; ? = inconclusive; · = not tested or not shown; & = joins results of further samples.

SMILES	PrP UTR inh	ugtP null kill	Mtb hypoxia rep	Mtb hypoxia rep growth	Sa RN4220 lethal	BJeLR lethal	Bead autofluor
CCN(c1ccccc1)S(=O)(=O)c1cc(C(=O)NCC(c2ccco2)N2CCCCC2)ccc1C (stereo unspecified)	-5	4	-2	-4	3.4	·	6725
Cc1nnc(NC(=O)c2sc3nc(-c4cccs4)cc(C(F)(F)F)c3c2N)s1	-4	·	·	·	·	7	14974
COC(=O)c1ccc(NC(=O)COC(=O)C2=NN(c3ccccc3)C(=O)CC2)cc1	-13	1	7	7	0.5	·	?
COC(=O)c1ccc(NC(=O)COc2ccc([N+](=O)[O-])cc2)cc1	-8	7	11	4	3.8	0	·
CSc1nnc([C@H](Cc2c[nH]c3ccccc23)NC(=O)OC(C)(C)C)o1	-45	-7	-4	8	4.9	-8	5939
CCCCN(C(=O)Cn1nnc2ccccc21)C(C(=O)NCCOC)c1cccs1 (stereo unspecified)	3	4	2	3	2.3	-4	3703
O=c1c2ccccc2ncn1Cc1ccc(Cl)c(Cl)c1	-14	7	20	11	0.8	-3	4207
COc1cccc(NC(=O)C2CCCN(S(C)(=O)=O)C2)c1 (stereo unspecified)	-22	-2	1	4	2.3	-18	3538
CN(CC(=O)Nc1ccc(F)c(F)c1F)C(=O)C1CC(=O)N(c2ccc3c(c2)OCCO3)C1 (stereo unspecified)	-14	8	-4	-8	3.6	4	·
CCOCCCNCC(=O)Nc1ccc(S(=O)(=O)NC(C)CC)cc1 (stereo unspecified)	-12	3	10	21	4.5	4	4135
O=C(O)c1ccc(C=NNC(=S)NCCN2CCOCC2)cc1	·	4	-2	-4	7.4	·	·
O=c1cc(N2CCC3(CC2)OCCO3)[nH]c(=O)n1C1CCCCC1	-24	2	-7	-4	5.7	2	2983
Cc1ccc(C2CC2c2n[nH]c(=S)n2-c2ccc(Cl)cc2)cc1 (stereo unspecified)	-30	36	3	12	-0.6	6	10798
CCOCCCNC(=O)C(NC(=O)c1cnccn1)c1ccc(C)cc1 (stereo unspecified)	-13	3	9	6	0.2	0	9424
O=C(CCC(=O)N1CCN(S(=O)(=O)c2ccc(Cl)cc2)CC1)Nc1ccc2ccccc2c1	4	-4	11	3	0.5	-1	2506
CCn1cc(S(=O)(=O)N2CCCC2)cn1	-26	-1	0	-6	-3.6	4	5676
CCOC(=O)/C(=N\Nc1ccc(OC)cc1)c1csc(Nc2ccccc2)n1	-20	·	·	·	·	8	13459
O=C(O)c1[nH]c2ccccc2c1CC(=O)N1CCN(c2ccccc2)CC1	-20	-2	-3	6	2.3	-1	2008
Cc1ccc(N2CN=c3s/c(=C\c4cccnc4)c(=O)n3C2)cc1	-6	·	·	·	·	9	2781
COCCn1c(SCc2nc3sc(C(=O)OC)c(C)c3c(=O)[nH]2)nc2ccccc21	-25	9	8	5	7.3	2	4477
CCOc1ccc(OCC(=O)OC(C)C(=O)Nc2ccc(Cl)cn2)cc1 (stereo unspecified)	0	4	7	3	4.6	6	?
C/C=C/n1ccnc1CC(O)(c1ccccc1)c1ccc(C)cc1 (stereo unspecified)	-4	1	4	2	3.8	-5	·
Cc1ccc2c(c1)NC(=O)C(CC(=O)NC1CCCCC1C)O2 (stereo unspecified)	-4	12	·	·	1.0	-3	5536
CC(C)c1nc2sc3c(=O)[nH]cnc3c2c2c1CCCC2	-16	6	-5	2	0.8	8	4592
Cc1ccc2c(c1)N(CCCC(=O)NCCCN1CCCC1=O)C(=O)CO2	-26	9	2	1	6.3	-15	5298

Other compounds
SMILES	PrP UTR inh	ugtP null kill	Mtb hypoxia rep	Mtb hypoxia rep growth	Sa RN4220 lethal	BJeLR lethal	Bead autofluor
Cc1nc2ccccc2n1CC(O)COCC1CC=CCC1 (stereo unspecified)	8	-5	-10	-9	3.3	12	2471
CCc1ccc(C(=O)COC(=O)c2ccc(-c3nnc(-c4ccccc4)o3)cc2)cc1	-51	-3	-8	6	-0.3	14	24076*
Cc1ccsc1C1C(C#N)=C(N)N(N(C)C)C2=C1C(=O)CCC2 (stereo unspecified)	-9	1	6	4	0.8	-12	4523
CCC(=O)Nc1nnc(S(=O)(=O)N(CC)c2cc(C)cc(C)c2)s1	-16	11	6	12	8.7	8	3581
Cc1ccc2oc(C(=O)N3CCN(CC(=O)NC(C)C)CC3)c(C)c2c1	-17	12	1	11	-2.2	-4	3759
CSCCC(NC(=O)c1ccc(Cl)cc1)C(=O)OCC(=O)c1ccc[nH]1 (stereo unspecified)	1	6	-6	3	6.0	-11	2732
CCCOc1ccc(C2C(C(=O)c3ccco3)=C(O)C(=O)N2CCN2CCOCC2)cc1OC (stereo unspecified)	·	10	4	-2	0.2	-9	·
O=C(NC1CCN(S(=O)(=O)c2cccc(Cl)c2)CC1)C1CCCCC1	-14	7	-2	-3	1.9	3	5307
O=C(COC(=O)c1c(Cl)ccc(Cl)c1Cl)NC(=O)NCc1ccccc1	4	-14	-5	-7	3.1	-5	2517
COc1ccccc1N1CCN(C(=O)c2ccc(N3CCCCS3(=O)=O)cc2)CC1	-11	1	10	3	4.4	-3	4091
O=C1CCN(Cc2cccnc2)CCN1[C@H](CO)c1ccccc1	-29	2	4	1	-8.4	2	3892
O=C(c1cc(-c2cccc3ccccc23)nc2ccccc12)N1CCN(CCO)CC1	-3	3	22	31	3.4	·	3168
COc1ccc(CCN=C(N)NS(=O)(=O)c2ccc(F)cc2)cc1	-6	4	15	18	2.2	3	1837
CCOc1ccc(NC(=O)CN(C)C(=O)CCc2ccccc2Cl)cc1OCC	-5	6	13	6	-1.8	1	5612
Brc1cc2c(cc1-c1nc3ccccc3s1)OCO2	1	11	-4	7	3.6	-11	5651
CCc1ccc2c(c1)c(N=NC1=NC(=O)CS1)c(O)n2CC	-16	-1	12	6	-19	6	2460
COc1ccc(S(=O)(=O)NCC2CCCN(C(=O)CC3CCCC3)C2)cc1 (stereo unspecified)	-3	0	-5	7	0.9	8	3255
CC1CCCCN1CC(=O)Nc1ccc(N2CCCCCC2)cc1 (stereo unspecified)	-7	10	12	9	6.1	3	3813
Cn1c(Cl)nc2ccccc21	2	10	6	7	5.2	-2	4717
O=C1COCCOCCOCCOCC(=O)NCCN1	-1	0	-8	-1	3.4	-9	4560
Cc1ccc(Sc2ccc(S(=O)(=O)Nc3ccc(C(=O)O)cc3)cc2)cc1C	-19	4	0	2	17	·	3780
CCn1c(=O)c(C(=O)NNC(=O)c2ccccc2Br)c(O)c2ccccc21	-20	-13	9	-4	21	0	5825
COc1ccc(/C=C2/SC(=S)N(CCCC(=O)Nc3ccccc3C(=O)O)C2=O)cc1	18	30	21	17	35	1	3688
Cc1[nH]c2ccccc2c1C(C[N+](=O)[O-])c1ccco1 (stereo unspecified)	-4	11	16	5	-5.2	-2	4543
COC(=O)[C@@]1(C)[C@H]2C(=O)N(C)C(=O)[C@H]2[C@H]2CN(C)C(=NC3CCCCC3)N21	-10	4	0	3	1.1	·	3883

Sorted by length of the SMILES (rising): part of the list above.
SMILES	PrP UTR inh	ugtP null kill	Mtb hypoxia rep	Mtb hypoxia rep growth	Sa RN4220 lethal	BJeLR lethal	Bead autofluor
O=C1CCN(Cc2cccnc2)CCN1[C@H](CO)c1ccccc1	-29	2	4	1	-8.4	2	3892
Cc1ccsc1C1C(C#N)=C(N)N(N(C)C)C2=C1C(=O)CCC2 (stereo unspecified)	-9	1	6	4	0.8	-12	4523
CCOc1ccc(NC(=O)CN(C)C(=O)CCc2ccccc2Cl)cc1OCC	-5	6	13	6	-1.8	1	5612
O=C(c1cc(-c2cccc3ccccc23)nc2ccccc12)N1CCN(CCO)CC1	-3	3	22	31	3.4	·	3168

(further entries)
SMILES	PrP UTR inh	ugtP null kill	Mtb hypoxia rep	Mtb hypoxia rep growth	Sa RN4220 lethal	BJeLR lethal	Bead autofluor
COc1cccc(N2CCN(C(=O)c3c(C)nn(-c4ccccc4)c3C)CC2)c1	-6	3	13	6	7.2	-23	4699
CSc1ccc(/C=N/NC(=O)c2ccc(O)cc2)cc1	-47	·	·	·	·	11	2582
COc1ccc(C(C)=NNC(=O)CNC(=O)C(c2ccccc2)c2ccccc2)c(OC)c1	·	4	1	-1	-0.5	·	·
CC(C)(C)OC(=O)C(CCCCN)NC(=O)c1nc[nH]c1C(=O)NC(CCCCN)C(=O)OC(C)(C)C (stereo unspecified)	·	0	14	10	3.5	·	·
COc1cccc2c3c(c(C)nc12)CC(C)O3 (stereo unspecified)	-6	-6	15	8	6.0	-8	3985
CCCCN(C(=S)Nc1cccc(C)c1C)c1c(N)n(CCC)c(=O)[nH]c1=O	-6	3	-16	2	11	-6	4174
C#CCNC(=O)C1=CC(c2coc3ccccc3c2=O)CC(OCCCCO)O1 (stereo unspecified)	·	11&-6	-4&6	-1&8	7.5&3.7	·	·
CC1Oc2ccccc2C=C1/C=C1/SC(N2CCOCC2)=NC1=O (stereo unspecified)	-38	9	8	6	2.2	18	3239
O=C(c1cccc(Cl)c1)N1CCN(C2CCCCCC2)CC1	-11	-1	·	·	0.3	3	2698
C(=NNc1nn[nH]n1)c1ccccc1	·	4	14	6	3.8	·	·
COc1ccc2cc(C3NC(=O)c4ccccc4N3)c(Cl)nc2c1 (stereo unspecified)	-30	9	8	15	2.3	-1	4902
Cc1ccc(NC(=O)Cc2c(F)cccc2Cl)cc1S(=O)(=O)N1CCOCC1	-10	8	6	6	20	·	4319
COc1ccc(-c2noc(N(C)CC(=O)Nc3cccc(C(F)(F)F)c3)n2)cc1	-30	-34	3	5	-15	-1	3696
O=C(Nc1cccc(Cl)c1)NC1CCN(C2CCCCC2)C1 (stereo unspecified)	-9	4	20	7	1.4	6	3518
OC(CNCc1ccc(Cl)cc1)(c1ccccc1)c1ccc(F)cc1 (stereo unspecified)	-28	-4	9	3	-3.5	-11	4203
Cc1sc(-c2ccccn2)nc1OC(=O)c1ccc(Cl)c(Cl)c1	-10	-11	0	9	2.2	6	23143*
O=C(O)C1Cc2ccccc2CN1C(=O)CSc1nnc2ccccn12 (stereo unspecified)	-7	3	7	-1	3.2	10	4542
CCOC(=O)C1=NNC(C(=O)c2ccc(Cl)cc2)C1c1ccccc1 (stereo unspecified)	-1	·	·	·	·	13	1940
O=C(Cn1c(O)c(/C=C2\C=Nc3ccccc32)sc1=O)N1CCOCC1	-2	-4	14	5	0.7	3	4314
O=C(Nc1ccccc1C(F)(F)F)c1ccccc1Br	-27	·	·	·	·	5	5435
Cc1cccc(C)c1OCC(=O)Nc1ccccc1C(=O)N1CCOCC1	3	-3	5	2	-2.6	-10	4837
O=c1[nH]c(=O)n(Cc2ccco2)c(O)c1C=NCCN1CCOCC1	-13	0	13	10	5.6	-7	2981
COc1ccc(N2CCN(C(=O)/C=C/c3ccco3)CC2)cc1	-12	6	3	5	0.1	-5	3329
COc1ccc(-n2c(SCC(=O)N3CCc4ccccc43)nnc2-c2c[nH]c3ccccc23)cc1	-10	-6	0	-5	-10	6	4158
CC(C)n1cnnc1SCC(=O)Nc1ccc(Br)cc1F	-2	4	-9	-5	7.1	4	4253

Later entries.
SMILES	PrP UTR inh	ugtP null kill	Mtb hypoxia rep	Mtb hypoxia rep growth	Sa RN4220 lethal	BJeLR lethal	Bead autofluor
O=C(NC1CCCCC1)C1CCCN1C(=O)Nc1ccccc1 (stereo unspecified)	-18	-4	8	5	-0.9	-1	5400
COc1ccc(/C=N/NC(=O)C2CCN(c3ncc(C(F)(F)F)cc3Cl)CC2)cc1	-2	·	·	·	·	2	22271*
CCn1nnnc1SCC(=O)Nc1cc(OC)cc(OC)c1	-4	7	10	11	-2.0	7	3511
COc1cc(OC)cc(C(=O)N2CCN(C3CCN(Cc4ccccc4)CC3)CC2)c1	-11	-2	2	7	2.2	0	13256
CCOC(=O)C1=C(C)N(CCCC(=O)O)C(=O)NC1c1cccs1 (stereo unspecified)	-7	1	3	6	2.4	1	3289
Cc1cc(CSC(=N)N)c(CSC(=N)N)cc1C	-11	-3	1	-11	2.5	9	4365
CCOC(=O)c1cnc(SCC(=O)c2ccc(Cl)cc2)nc1N	-18	15	·	·	-1.0	-11	4589

Fetched one by one from the entries so far:
SMILES	PrP UTR inh	ugtP null kill	Mtb hypoxia rep	Mtb hypoxia rep growth	Sa RN4220 lethal	BJeLR lethal	Bead autofluor
COc1cc(OC)cc(C(=O)N2CCN(C3CCN(Cc4ccccc4)CC3)CC2)c1	-11	-2	2	7	2.2	0	13256
Cc1cc(CSC(=N)N)c(CSC(=N)N)cc1C	-11	-3	1	-11	2.5	9	4365
O=C(NC1CCCCC1)C1CCCN1C(=O)Nc1ccccc1 (stereo unspecified)	-18	-4	8	5	-0.9	-1	5400
CCOC(=O)c1cnc(SCC(=O)c2ccc(Cl)cc2)nc1N	-18	15	·	·	-1.0	-11	4589

Assay outcomes from PubChem BioAssay.
